PINK1 expr mod – PINK1 expression modulation. Potency, µM (series often up to 76.6 µM), for the others: at the highest dose activation (PINK1 increase), hits mostly activators. PINK1 immunofluorescence, high-content cytometry, 24 h. hit rate 0.2% among 410,000; active = well fitted activation curve with a large enough effect; inconclusive = small, poorly fitted or top-dose-only effect; inactive = flat fitted curve, though single readings scatter; cell line not stated here;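 also: potency is read from the fitted curve at half-maximal effect; % of control where 0% means no effect; nearly all actives have a fitted effect of over 65% in size; a mitochondrial uncoupler was the plate control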
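PINK1 protein level read as immunofluorescence by microplate cytometer in a fixed, stained stable cell line after 24 h exposure to five compound concentrations, with CCCP as control.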
TRPML1 blocker – human mucolipin-1 channel inhibition. TRPML1-inducible cells, Ca2+ dye fluorescence, FDSS; active compounds read low; inhibition of EC80 agonist-evoked calcium signal. hit rate 0.02% among 390,000. activity change, negative = inhibition, % (concentration not given with the values). AID 624415. Q9GZU1; in the data active means activity change below about -50%; inconclusive means about -30% to -50%; inactive means above about -30%;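 also: stimulus is agonist 54-4 at its EC80 concentration; % is scaled to controls: 0 for no effect and ±100 for the full control effect; the text of the record puts the active cut at -80%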
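TRPML1-DL cells, Tet-induced overnight (~16 h, 37 °C) at 1,500 cells/well, were loaded with Ca8 no-wash dye plus quencher for 45-90 min at room temperature. Compounds were pinned during FDSS kinetic reading; agonist 54-4 at EC80 (4 uM final) then added.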
TRPML1 ag – human mucolipin-1 channel agonism; Q9GZU1; TRPML1-expressing cells, Ca2+ dye fluorescence, FDSS; host cell line not named in the record; reference of the full effect not given here; activation, % (test concentration not listed); hit rate 0.12% among 410,000; in the data active = activation above about 50%; inconclusive = about 30% to 50%; inactive = below about 30%; also: 0% is about no effect; the text of the record puts the active cut at 80%
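Kinetic FDSS Ca2+ read in Tet-induced TRPML1-DL cells (ABD Ca8 dye plus quencher, 45-90 min RT loading): baseline, then compound, then 110 s agonist window; EC80 agonist 54-4 at 4uM final added afterwards for a 110 s antagonist window.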
CtBP-E1A blk – inhibitors of CtBP/E1A interaction; AlphaScreen GST-E1A/His-CtBP binding, 1536-well; active compounds read low; control for the full effect not named in the record; activity change, % (no concentration beside the values); hit rate 0.49% among 340,000; AID 651724; in the data active means activity change below about -65%; inconclusive means about -30% to -65%; inactive means above about -30%; also: % is scaled to controls: 0 for no effect and ±100 for the full control effect
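In 5 uL wells, 23 nL compound meets equimolar GST-E1A and His-CtBP (5X stock 125 nM each) for 2 h, 37 °C. Beads (5X, 50 ug/mL) then 1 h, 37 °C, dark.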
D2 agonist – human D2 receptor agonism in beta-arrestin assay | activation, % (concentration not given with the values) | DiscoveRx PathHunter D2 beta-arrestin, luminescence, 90 min; 100% = 57 uM dopamine signal | hit rate 0.084% among 360,000 | AID 624465; in the data active = activation above about 40%; inconclusive = about 15% to 40%; inactive = below about 15%; also: compound concentration not given in the record; the text of the record calls up to 30% inactive
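Agonist mode: compounds alone added to overnight-plated D2 PathHunter cells for 90 min at 37 C, with 57 uM final dopamine (EC100) defining full response. Beta-arrestin recruitment detected by chemiluminescent reagent, read after 1 h at ambient temperature.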
Six1-Eya2 blk – blocks human Six1 binding to Eya2; AlphaScreen GST-Six1/His-Eya2 binding, biochemical; active compounds read low; control for the full effect not named in the record; activity change, % (test concentration not listed); hit rate 0.56% among 360,000; AID 651725; in the data active = activity change below about -65%; inconclusive = about -30% to -65%; inactive = above about -30%; also: % is scaled to controls: 0 for no effect and ±100 for the full control effect
Target sequence (O00167 whole entry, looked up): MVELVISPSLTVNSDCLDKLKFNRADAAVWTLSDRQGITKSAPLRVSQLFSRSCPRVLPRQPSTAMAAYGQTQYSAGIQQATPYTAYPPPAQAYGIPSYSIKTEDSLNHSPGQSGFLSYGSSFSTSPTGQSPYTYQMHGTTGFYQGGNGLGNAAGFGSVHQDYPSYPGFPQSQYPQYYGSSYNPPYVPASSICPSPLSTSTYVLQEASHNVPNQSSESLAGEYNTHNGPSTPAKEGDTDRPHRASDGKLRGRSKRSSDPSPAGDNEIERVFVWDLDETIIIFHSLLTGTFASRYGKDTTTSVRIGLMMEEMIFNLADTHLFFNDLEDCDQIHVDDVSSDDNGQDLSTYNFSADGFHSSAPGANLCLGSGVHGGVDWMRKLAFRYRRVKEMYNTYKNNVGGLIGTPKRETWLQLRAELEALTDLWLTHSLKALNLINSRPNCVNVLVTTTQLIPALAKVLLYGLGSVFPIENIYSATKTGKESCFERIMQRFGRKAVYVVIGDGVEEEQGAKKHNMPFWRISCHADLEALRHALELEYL
Target sequence (Q15475 whole entry, looked up): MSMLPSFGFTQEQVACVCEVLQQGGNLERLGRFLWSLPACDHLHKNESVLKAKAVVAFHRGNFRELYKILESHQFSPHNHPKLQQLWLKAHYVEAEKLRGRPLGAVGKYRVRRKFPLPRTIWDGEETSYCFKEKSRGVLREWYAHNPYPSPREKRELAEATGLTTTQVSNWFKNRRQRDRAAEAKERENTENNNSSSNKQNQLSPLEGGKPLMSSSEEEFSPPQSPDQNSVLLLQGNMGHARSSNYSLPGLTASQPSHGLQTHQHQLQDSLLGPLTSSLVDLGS
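GST-Six1 + His-Eya2 (5X stock: 250/500 nM); Tris pH 8.0, 300 mM NaCl, 0.05% BSA, 0.02% Tween 20; GSH donor/Ni acceptor beads; 1 h 37 °C dark; AlphaScreen readout.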
An asterisk follows results filed as active; u = inconclusive; x = not tested or not shown; [ ] = dose if it differs, or a comment.

SMILES	PINK1 expr mod	TRPML1 blocker	TRPML1 ag	CtBP-E1A blk	D2 agonist	Six1-Eya2 blk
Cc1cccc(CN(C)C)c1OC(=O)N(C)C	-1.8%	-1	-1.1	5	-2.1	3
CC1=C(C(=O)OC(C)C)[C@]2(C(=O)N(CC(N)=O)c3ccccc32)C(C#N)=C(N)O1	-0.5%	-20	-0.7	4	5.6	-9
N=c1ccccn1Cc1ccccc1	-0.2%	44	0.0	-7	-6.4	6
CCC(=O)CC(c1ccc([N+](=O)[O-])cc1)c1c(O)c2ccccc2oc1=O (stereo not drawn)	0.1%	-16	0.5	-2	-4.1	1
O=C1CN=C(c2ccccc2Cl)c2cc(Br)ccc2N1	2.8%	4	0.2	8	-1.5	59
COc1ccc(-c2nn(CCC#N)cc2C(=O)Nc2ccc(C(C)=O)cc2)cc1[N+](=O)[O-]	-0.5%	25	-0.4	-8	1.5	-5
CC1=CC2/C=C(\C)CCC(O)C(O)/C=C/C(=O)C23C(=O)NC(CC(C)C)C3C1C (stereo not drawn)	-1.3%	-3	0.2	2	-10	0
O=C(CCN1CCOCC1)Nc1ccc(Br)cc1C(=O)c1ccccc1	0.7%	-3	0.1	-85*	-2.3	-74*
COc1ccc(C2CC(=O)Oc3c2c(=O)oc2ccccc32)c(OC)c1OC (stereo not drawn)	0.7%	-8	0.5	x	x	x
CC1=CC2OC3CC4OC(=O)C=CC=CC(C(C)O)OCC(O)C(C)CC(=O)OCC2(CC1O)C4(C)C31CO1 (stereo not drawn)	-1.0%	-11	0.3	3	-3.7	2
CSc1ccc(CN2CCN(c3ccccc3C)CC2)cc1	u	25	1.9	-6	3.3	-5
CN1CCC(O)(c2ccccc2)C(C(=O)c2ccccc2)C1 (stereo not drawn)	-0.5%	12	-0.7	2	-4.7	0
CCN(CC(=O)Nc1ccc(C#N)c(Cl)c1)CC(=O)NC1CCS(=O)(=O)C1 (stereo not drawn)	4.0%	22	-0.7	0	1.3	4
O=P1(Oc2ccccc2)C[C@@H](O)[C@@H](O)[C@H](COCc2ccccc2)O1 (stereo partly drawn)	-0.4%	0	-0.2	4	-4.6	3
NC(=O)Nc1ccc(C(=O)OCC(=O)Nc2ccc(Cl)cc2C(=O)c2ccccc2)cc1	0.9%	13	-1.5	5	-8.2	0
CC(=NCc1cccnc1)c1c(O)n(Cc2ccccc2)c(=O)[nH]c1=O	0.1%[38.3 µM]	-8	-0.4	4	-2.7	-1
CCn1c(O)c(C=Nc2ccc(N3CCOCC3)c(Br)c2)c(=O)n(CC)c1=S	24%[38.3 µM]	2	-0.7	13	-2.7	4
O=C1N(c2ccc(Cl)cc2)C(c2cccnc2)N2CCCN12 (stereo not drawn)	0.5%	-18	1.5	6	-3.6	5
Nc1cnn(-c2ccccc2)c(=O)c1Cl	-1.1%	3	0.7	10	3.8	-2
N#Cc1cc(F)c(N2CCNCC2)cc1Cl	0.7%	-1	0.9	0	-2.3	5
C[C@H]1[C@H](OC(=O)CCC(=O)NCc2ccc(C(=O)O)cc2)O[C@@H]2O[C@@]3(C)CC[C@H]4[C@H](C)CC[C@@H]1C24OO3	3.8%	0	1.8	-18	x	-11
COC(=O)C1=C(c2cc3ccccc3s2)C[C@@H]2CC[C@H]1N2C(=O)NC1CCCCC1	25%	-3	1.0	-2	5.1	-12
O=c1c2ccccc2nc(CSc2ncnc3nc[nH]c23)n1-c1ccccc1Cl	-0.3%	2	-0.4	1	-4.4	0
COC(=O)C1=CO[C@@H](C)[C@@H]2CN(CCc3c[nH]c4ccccc34)CC[C@H]12	4.6%	-8	-0.4	0	-1.4	-16
C[C@H]1CN([C@@H](C)CO)C(=O)CCCn2nncc2CO[C@H]1CN(C)C(=O)Oc1ccccc1	2.4%	-8	-0.8	1	2.1	18
(cont.)
SMILES	PINK1 expr mod	TRPML1 blocker	TRPML1 ag	CtBP-E1A blk	D2 agonist	Six1-Eya2 blk
C/C(=N\N1CCCCC1)c1c(O)[nH]c(=O)[nH]c1=O	1.6%	5	-0.3	-4	-2.6	7
CCN(CC)P(=S)(c1c(C)nc2ccccn12)c1c(C)nc2ccccn12	-0.3%	0	0.4	-3	-2.1	-13
CCc1cccc(NC(=O)CN2C(=O)CN=C(c3ccccc3F)c3cc(Cl)ccc32)c1	0.8%	-8	2.3	x	x	x
N#CC1c2ccccc2-n2nncc2CN1C(=O)CCc1ccccc1 (stereo not drawn)	-1.2%	-13	-0.7	-1	-0.2	3
COc1ccc(OC)c(NC(=O)Cn2cc(C(=O)c3ccccc3F)c3ccccc32)c1	-0.8%	32	1.3	x	x	x
COC(=O)C1=C(c2cc3ccccc3s2)C[C@@H]2CC[C@H]1N2C(=O)NCc1cccc2ccccc12	-0.8%	1	-0.4	-8	0.3	-11
COc1cc(OC)c(OC)cc1CNC(C)C(O)c1ccccc1 (stereo not drawn)	-1.1%	-7	1.2	-13	-1.4	-2
CC(=O)NC1C(OC(=O)Cc2ccccc2)OC(COC(C)=O)C(OC(C)=O)C1OC(C)=O (stereo not drawn)	-0.6%	-1	1.2	-5	1.6	-2
CC(C)(C)n1nnnc1C(c1cccc2ccccc12)N1CCC2(CC1)C(=O)NCN2c1ccccc1 (stereo not drawn)	-0.5%	x	-0.4	-5	-3.9	-16
COc1ccc(NC(=O)CCc2nc(C3=CCN(Cc4cccc(C)c4)CC3)no2)c(OC)c1	4.5%	7	0.1	x	x	x
C[C@H](CO)N1C[C@H](C)[C@@H](CN(C)C(=O)Oc2cccc3ccccc23)OCc2cn(nn2)CCCC1=O	2.4%	25	0.7	-24	-6.1	18
CCOC(=O)c1c(N)n(CCN2CCOCC2)c2nc3ccccc3nc12	x	9	4.2	-4	-1.8	u
CC1C(c2cccs2)=[N+]([O-])C(C)(C(=O)c2cccs2)N1O (stereo not drawn)	1.2%	39	0.4	6	1.6	4
O=C(COc1ccc2ccccc2c1)N1CCN(CC2CC3C=CC2C3)CC1 (stereo not drawn)	-1.5%	14	-1.2	-3	-1.2	-11
CCCCn1c(=O)c(C=Nc2cc([N+](=O)[O-])ccc2OC)c(O)n(CCCCl)c1=O	1.5%	-17	0.4	x	-1.4	-3
Cc1ccc(-n2c(/C=C/c3ccccc3)nc3ccccc3c2=O)cc1Cl	1.7%	-3	3.0	x	x	x
O=C(CCc1ccccc1)N1C[C@H]2C[C@@H](C1)c1cccc(=O)n1C2	-0.9%	x	x	9	-3.6	4
Nc1ccccc1C(=O)OCC(=O)Nc1ccc(Br)cc1F	3.2%[38.3 µM]	-4	0.4	3	-0.2	2
CCOC(=O)c1cccc(C2=C(CNC(C)=O)[C@H]3CC[C@@H](C2)N3Cc2ccccc2)c1	0.1%	-5	-0.3	-1	-9.2	1
COC(/C(C)=C/C=C/C(C)=C/c1coc(C)n1)C(C)C1CC(O)C2(C)OC2C=CC(C)C2CC(CC(=O)O2)CC2OC2C(=O)O1 (stereo not drawn)	8.5%	-5	0.1	-4	2.7	8
C[C@@H]1O[C@@H](O[C@H]2C[C@@H](O)[C@]3(CO)[C@@H]4C(CC[C@]3(O)C2)[C@@]2(O)CC[C@H](C3COC(=O)C3)[C@@]2(C)C[C@H]4O)[C@H](O)[C@H](O)[C@H]1O (stereo partly drawn)	-1.2%	-10	-0.4	-1	-6.8	14
NCCCN1CCN(c2ccccc2)CC1	-0.5%	14	0.5	-11	u	-2
COC(=O)C1=C(c2ccccc2)C[C@@H]2CC[C@H]1N2C(=O)NC(C)C	-1.4%	15	-0.6	9	-3.6	2
CN1C(=O)C(=Cc2ccc(OCC(=O)Nc3ccccc3)cc2)C(=O)N(C)C1=O	1.3%	-2	0.2	-5	1.7	13
CC(C)c1ccc(N2C(=O)NC(=O)/C(=C/C=C/c3ccco3)C2=O)cc1	-1.5%	1	4.1	3	0.1	-24

Sorted by length of the SMILES (largest number first): some entries from above.
SMILES	PINK1 expr mod	TRPML1 blocker	TRPML1 ag	CtBP-E1A blk	D2 agonist	Six1-Eya2 blk
C[C@H](CO)N1C[C@H](C)[C@@H](CN(C)C(=O)Oc2cccc3ccccc23)OCc2cn(nn2)CCCC1=O	2.4%	25	0.7	-24	-6.1	18
COC(=O)C1=C(c2cc3ccccc3s2)C[C@@H]2CC[C@H]1N2C(=O)NCc1cccc2ccccc12	-0.8%	1	-0.4	-8	0.3	-11
N#CC1c2ccccc2-n2nncc2CN1C(=O)CCc1ccccc1 (stereo not drawn)	-1.2%	-13	-0.7	-1	-0.2	3

(list continues)
SMILES	PINK1 expr mod	TRPML1 blocker	TRPML1 ag	CtBP-E1A blk	D2 agonist	Six1-Eya2 blk
Cc1cc(OCC(=O)NC2CCS(=O)(=O)C2)c2c3c(c(=O)oc2c1)CCC3 (stereo not drawn)	-0.3%	-3	-0.7	1	-2.4	-5
CCN1C(=O)/C(=C/c2ccc(N(CC)CC)cc2OC)C(=O)NC1=S	-0.4%	-15	1.2	15	0.0	-2
CCCCn1nnnc1C(CCSC)N1CCC2(CC1)C(=O)NCN2c1ccccc1 (stereo not drawn)	1.6%	x	-0.3	-15	-3.1	-2
CCCC1=C(C(=O)OCC)C2(C(=O)Nc3ccc(C)cc32)C(C#N)=C(N)O1 (stereo not drawn)	u	-12	0.0	3	4.8	-3
O=C(NCC1=C(c2ccc3ccccc3c2)C[C@@H]2CC[C@H]1N2Cc1ccco1)c1ccncc1	-0.7%	2	-0.2	-18	-7.6	-10
CN/C=C(/Cl)P(=O)(OC(C)C)OC(C)C	0.1%	-5	0.1	8	-0.2	8
CC(=O)c1ccc2c(c1)C1C(Cl)C(Sc3ccccc3[N+](=O)[O-])CC1C(c1ccccc1)N2 (stereo not drawn)	-1.5%	-10	0.0	-23	-1.3	-16
Cc1ccccc1CC(=O)N(CCN(C)C)CC1CCCN(Cc2ccccc2F)C1 (stereo not drawn)	-0.1%	-1	0.2	-2	12	4
O=C(NC1CCCCC1)N1C[C@H]2C[C@@H](C1)c1cccc(=O)n1C2	3.1%	-9	0.3	0	0.8	1
COc1ccc(CCN(C)Cc2ccncc2)cc1OC	3.3%[38.3 µM]	24	1.1	9	1.2	0
Fc1cccc(CCNCc2ccccn2)c1	-1.1%	3	0.8	-14	-1.4	-11
COc1ccc2c3c([nH]c2c1)C(C)NCC3 (stereo not drawn)	1.2%	x	x	-14	-0.6	u
O=C(N/N=C/c1c(O)n(C2CC2)c(=S)[nH]c1=O)c1ccccc1Cl	-0.2%	25	-0.2	-93*	-3.9	-81*
COc1cc(/C=C2\C(=O)NC(=O)N(c3ccc(C)cc3)C2=O)cc(OC)c1O	1.5%	18	2.7	3	-3.4	-3
C#CCN(C)[C@H](C)Cc1ccccc1	1.2%	-6	-0.4	-2	6.3	-3
COC(=O)C1=C(C)OC(N)=C(C#N)C12C(=O)Nc1ccccc12 (stereo not drawn)	1.1%	-15	-0.2	13	10	0

In a second layout: results already given
structure | PINK1 expr mod | TRPML1 blocker | TRPML1 ag | CtBP-E1A blk | D2 agonist | Six1-Eya2 blk
CCCCn1nnnc1C(CCSC)N1CCC2(CC1)C(=O)NCN2c1ccccc1 (stereo not drawn) | 1.6% | x | -0.3 | -15 | -3.1 | -2
CCCC1=C(C(=O)OCC)C2(C(=O)Nc3ccc(C)cc32)C(C#N)=C(N)O1 (stereo not drawn) | u | -12 | 0.0 | 3 | 4.8 | -3

Screens from PubChem BioAssay.

The list is partial, so the mix of outcomes need not match the whole.
